Compound activity from PubChem.
Cruzain Triton: cruzain (T. cruzi) inhibition with detergent | P25779 | purified cruzain, Z-FR-AMC fluorescence, 0.01% Triton | Potency, µM, for inactives: max response, negative = inhibition, most hits filed as inhibitors | hit rate 0.43% among 200,000 | AID 1478; active means well fitted curve in the direction sought with a large enough effect; inconclusive means small, poorly fitted or top-dose-only effect, or another doubt; inactive means no such curve, though single readings can be large; an effect the other way counts as inactive or inconclusive;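 further: plate controls were neutral wells for no effect and buffer without enzyme for full effect; nearly all actives have a fitted effect of over 40% in size; top concentration of the series not given in the record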
Target sequence (P25779 123-467 limits assumed): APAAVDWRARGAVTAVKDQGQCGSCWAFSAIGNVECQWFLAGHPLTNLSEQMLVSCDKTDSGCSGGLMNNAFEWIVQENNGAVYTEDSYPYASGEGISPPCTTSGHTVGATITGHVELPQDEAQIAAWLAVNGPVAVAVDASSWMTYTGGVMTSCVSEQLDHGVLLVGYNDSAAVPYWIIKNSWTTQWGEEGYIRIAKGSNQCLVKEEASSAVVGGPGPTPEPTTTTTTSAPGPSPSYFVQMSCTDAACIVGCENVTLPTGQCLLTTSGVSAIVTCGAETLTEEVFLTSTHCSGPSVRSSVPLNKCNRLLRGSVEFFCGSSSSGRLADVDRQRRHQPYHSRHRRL
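Z-FR-AMC hydrolysis (2 uM substrate) by cruzain (1.5 nM) monitored kinetically at ex 360/em 450 nm after 15 min room-temperature compound exposure; 0.01% Triton X-100, pH 5.5, 5 mM DTT.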
Cruzain inh noDet: cruzain (T. cruzi) inhibition without detergent; P25779; purified cruzain, Z-FR-AMC fluorescence, no detergent; Potency, µM, for the others: max response, negative = inhibition, usual class: inhibitors; hit rate 2.3% among 200,000; AID 1476; active means well fitted curve in the direction sought with a large enough effect; inconclusive means small, poorly fitted or top-dose-only effect, or another doubt; inactive means no such curve, though single readings can be large; an effect the other way counts as inactive or inconclusive;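 further: plate controls were enzyme without inhibitor for no effect and buffer without enzyme for full effect; nearly all actives have a fitted effect of over 40% in size; top concentration of the series not given in the record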
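Purified cruzain at 1.5 nM, pre-incubated 15 min with compound at room temperature in 100 mM sodium acetate pH 5.5, 5 mM DTT, 0.00005% Triton X-100. Reaction started with 2 uM Z-FR-AMC; AMC fluorescence increase over 60 s gives rate.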
NS1 function inh: blocks influenza NS1 protein function; S. cerevisiae slowed by influenza A NS1, growth recovery by OD600; Potency, µM (titrated, usually from 46.1 µM), for inactives: at the top dose activity, positive = more growth; hit rate 0.4% among 270,000; AID 2326; further: actives are rising curves; nearly all actives have a fitted effect of over 50% in size
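Growth recovery, yeast-based: influenza A NS1 expressed in S. cerevisiae causes slow growth, and suppressors are detected by OD600. The parent strain without NS1 is used as positive control.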
MARV entry inh: inhibitors of Marburg virus binding or cell entry. AID 540276. hit rate 1.8% among 300,000. Marburg virus pseudotyped entry inhibition, cell reporter; control for the full effect not named in the record; about a third of the inactives were read at about 46 µM. Potency, µM (doses to about 37.8 µM), without a hit: at the top dose activity change, negative = inhibition, usual class: inhibitors; active = well fitted inhibition curve with a large enough effect; inconclusive = small, poorly fitted or top-dose-only effect, or effect the other way; inactive = flat fitted curve, though single readings scatter; tested in HEK293 cells; about a fifth of its hits are not listed in these tables; further: on the % scale 0 is the no-effect control and ±100 the full control effect; luciferase read-out
SARS PLpro yeast: blocks SARS-CoV papain-like protease in a yeast assay; S. cerevisiae expressing SARS-CoV PLpro, growth rescue; control for the full effect not named in the record; Potency, µM (highest dose often 32.9 µM), inactives show top-dose activity, positive = growth rescue; hit rate 0.19% among 330,000; further: 0% is about no effect; nearly all actives have a fitted effect of over 55% in size; growth read by luminescence after 48 h
LASV entry inh: Lassa virus entry inhibition; Lassa virus pseudotype entry inhibition, cell reporter; control for the full effect not named in the record; Potency, µM (series often up to 37.9 µM), without a hit: top-dose activity change, negative = inhibition, actives largely listed as inhibitors; hit rate 1.2% among 300,000; active means well fitted inhibition curve with a large enough effect; inconclusive means small, poorly fitted or top-dose-only effect, or effect the other way; inactive means flat fitted curve, though single readings scatter; tested in HEK293 cells; further: on the % scale 0 is the no-effect control and ±100 the full control effect; nearly all actives have a fitted effect of over 50% in size; luciferase read-out
2A StopGo: FMDV 2A StopGo reporter, luciferase signal | human cells with a luciferase reporter of 2A StopGo recoding; control for the full effect not named in the record | Potency, µM (doses to about 57.9 µM), for inactives: top-dose signal change, negative = less light | hit rate 1.2% among 410,000 | AID 1159524; active = well fitted falling curve with a large enough effect; inconclusive = small, poorly fitted or top-dose-only effect; inactive = no such curve, though single readings can be large or run the other way; tested in HEK293T cells; further: on the % scale 0 is the no-effect control and ±100 the full control effect; nearly all actives have a fitted effect of over 45% in size; luciferase light after 4 h
RE007 growth inh: less growth of the S. pombe RE007 Vpr strain; S. pombe RE007 Vpr strain, BacTiter-Glo ATP luminescence, 24 h; control for the full effect not named in the record; Potency, µM (doses to about 92.2 µM), without a hit: at the highest dose activity change, negative = less growth; hit rate 0.21% among 360,000; active = well fitted falling curve with a large enough effect; inconclusive = small, poorly fitted or top-dose-only effect; inactive = no such curve, though single readings can be large or run the other way;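 further: on the % scale 0 is the no-effect control and ±100 the full control effect; nearly all actives have a fitted effect of over 50% in size; the assay follows cell death caused by Vpr and the record does not say whether a fall means rescue or toxicity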
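Fission yeast strain RE007, carrying one chromosomally integrated HIV-1 vpr copy, was seeded at OD 0.01 in PMG+AL medium with 23 nL pinned compound. After 24 h at 30 °C and 99% humidity, viability was read by BacTiter-Glo luminescence.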
Active calls of the source: *; u = inconclusive; x = not tested or not shown; & = joins results of further samples; [ ] = dose if it differs, or a comment. Unless noted, the call rests on the fitted dose curve; in most records, active means well fitted rising curve with a large enough effect; inconclusive means small, poorly fitted or top-dose-only effect; inactive means no such curve, though single readings can be large or run the other way. Potency means the concentration at half of the fitted maximal effect.

SMILES	Cruzain Triton	Cruzain inh noDet	NS1 function inh	MARV entry inh	SARS PLpro yeast	LASV entry inh	2A StopGo	RE007 growth inh
CC(=O)Nc1ccc(NC(=O)C(C)OC(=O)c2ccccc2NS(=O)(=O)c2cccs2)cc1 (stereo not given)	x	x	8%	-1%[46.1 µM]	1%	u	-26%	-18%
COCC(=O)N(C)C1(c2nnnn2CCOC(=O)Nc2ccc(Cl)cc2)CCCCC1	x	x	-2%	x	0%	x	-8%	14%
Oc1ccc(/C=N/n2c(COc3ccccc3)n[nH]c2=S)c(O)c1	x	x	-4%	x	5%	x	-17%	8%
COc1ccccc1CCNC(=O)CCSc1nc(-c2ccco2)cc(C(F)(F)F)n1	-13%	u	11%	u	-11%	-12%	-28%	7%
CCOC(=O)c1c(/N=C/c2ccc(O)cc2O)sc2c1CCC2	-7.5%	-17%	8%	-7%	-8%	-11%	x	x
CCOCCCNC(=O)c1ccc2c(c1)N(Cc1ccccc1)C(=O)CS2=O (stereo not given)	2.7%	-3%	5%	x	1%	x	6%	7%
CC(=O)Nc1ccccc1-c1nc2ccccc2n(C(C)C(=O)Nc2ccccc2C(F)(F)F)c1=O (stereo not given)	-2.2%	4%	x	4%[46.1 µM]	x	-22%[46.1 µM]	-24%	x
Cc1ccc(OCC(=O)Nc2ccccc2N2CCOCC2)c(C)c1	1.0%	-13%	-15%	-4%	-3%	-10%	0%	2%
CCOC(=O)N1CCN(c2cc(=O)n(-c3ccc(Br)cc3)c(=O)[nH]2)CC1	4.3%	-6%	13%	x	4%	x	-16%	-8%
Cc1ccc(S(=O)(=O)NCc2nc3cccnc3n2Cc2ccccc2Cl)c(C)c1	-4.5%	-5%	x	x	x	u	32%[activator]	x
CC(=O)NCCn1c(SCc2cccc([N+](=O)[O-])c2)nc2ccccc2c1=O	x	x	x	-24%[46.1 µM]	-3%	-17%	-29%	16%
Cc1nn(C)c(C)c1CN(C(=O)C1CCC(=O)N(C2CCCCCC2)C1)C(C)C (stereo not given)	x	x	-4%	u	u	u	34%[activator]	9%
O=C(NCCNCc1ccc(F)cc1)c1ccco1	4.5%	-11%	8%	2%	5%	-2%	-2%	10%
COC(=O)/C(C#N)=C/c1occc1C	-11%	1%	-8%	u	-13%	-1%	8%	-8%
COCCn1c(=S)[nH]c2cc(C(=O)N3CCN(Cc4ccc5c(c4)OCO5)CC3)ccc2c1=O	-1.9%	-6%	-18%	6.5µM*	3%	u	14µM*	11%
O=C(COc1ccccc1[N+](=O)[O-])N1CCN(CCc2ccncc2)CC1	-2.5%	-1%	x	3%[46.1 µM]	x	9%[46.1 µM]	-13%	x
CC(=O)c1cc(C)ccc1OC(=O)c1cccnc1	3.0%	1%	1%	u	-4%	16%	-20%	17%
CCCn1c(C(O)c2ccc(OC)c(OC)c2)nc2ccccc21 (stereo not given)	x	x	4%	x	12%	x	u	-14%
CC(C)n1c(C(F)(F)F)nc2cc(C(=O)N3CCC(O)CC3)ccc21	x	x	4%	u	0%	1%[46.1 µM]	-18%	10%
COc1ccc(-c2nn(CCC#N)cc2C(=O)Nc2ccccc2Br)cc1	x	x	-2%	-20%[46.1 µM]	8%	-3%[46.1 µM]	-14%	6%
CCCCN1C(=O)c2[nH]nc(-c3ccccc3O)c2C1c1ccc(C(C)(C)C)cc1 (stereo not given)	-8.8%	u	x	10%[46.1 µM]	x	x	-22%	x
CCCCNC(=O)COc1ccccc1C(=O)c1cc(C#N)c(=O)n(CCOC)c1	-1.4%	-5%	5%	7%	4%	15%	-4%	7%
O=C(Cn1nc(C(F)(F)F)c2c1CCC2)NCc1ccc(Cl)cc1	-5.4%	4%	1%	u	18%	-6%	-25%	-24%
Cc1ccc(S(=O)(=O)N2CCOCC2)cc1NC(=O)c1cc(-c2ccccn2)nc2ccccc12	x	x	1%	x	1%	x	-18%	-10%
C=CCn1c(=O)[nH]c2cc(C(=O)N3CCN(c4ccc(C(C)=O)cc4)CC3)ccc2c1=O	-6.0%	1%	-9%	-18%	-12%	u	14µM*	-11%
COc1ccc(NC(=O)C23CC4CC(C2)CC(n2cnc(Br)n2)(C4)C3)cc1Cl	-4.1%	-17%	-17%	-23%	2%	-1%	0%	-15%
CCN1C(=O)[C@@H]2Cc3c([nH]c4ccccc34)C(c3ccc(OC)cc3)N2C1=S (stereo not given in full)	x	x	8%	x	-1%	x	2%	7%
CCOC(=O)N1CCc2c(sc3c2c(=O)n(Cc2ccccc2)c(=O)n3Cc2cccc(C)c2)C1	-2.8%&-0.5%	u	u	11%[46.1 µM]	-12%	22%[46.1 µM]	-26%&-25%	1%
CCc1ccccc1NC(=O)c1cc(-c2cccs2)on1	x	x	-26%	-6%[46.1 µM]	-2%	3%	6%	-12%
CC(=O)Nc1cccc(C(=O)NCc2ccc3c(c2)CCN3C(=O)c2ccc(F)cc2)c1	-0.9%	u	x	x	x	7%[46.1 µM]	-18%	x
COC(=O)CSc1snnc1-c1ccc(F)cc1	-0.2%	-2%	-7%	6%	14%	0%	-22%	-14%
Cc1ccc(Nc2nc(N/N=C\c3ccc4c(c3)OCO4)nc(N3CCOCC3)n2)cc1	x	x	x	u	-7%	u	-25%	-20%
Nc1nc(-c2ccc(Cl)cc2)nn1C(=O)c1ccco1	x	x	x	-2%[46.1 µM]	1%	20%[46.1 µM]	36%[activator]	-8%
O=C(NCc1ccncc1)/C(=C\c1ccc(F)cc1)NC(=O)c1ccccc1	0.0%	8%	4%	-24%	8%	-3%	8%	0%
O=C(NC1CC(=O)N(c2cccc(F)c2)C1)C(c1ccccc1)c1ccccc1 (stereo not given)	-4.8%	-4%	x	x	x	0%[46.1 µM]	-14%	x
CC(OC(=O)C1CCCC1)C(=O)Nc1ccc(C(N)=O)cc1 (stereo not given)	x	x	x	0%[46.1 µM]	2%	6%	-19%	1%
COc1ccc(CNS(=O)(=O)c2ccc(-c3cnc(C4CC4)o3)cc2)cc1	-5.0%	-1%	5%	x	0%	0%[46.1 µM]	-26%&0%	-12%
COc1cc(/C=N/Nc2ccc(F)cc2F)cc(OC)c1O	-7.9%	-8%	-19%	-1%	x	-3%	10%	2%
CCN1CCN(CCCOc2ccc(-c3ccccc3)cc2)CC1	2.3%	-12%	-5%	u	-5%	-27%	x	-7%
Nc1cc(N)nc(SCC(=O)Nc2cc(S(=O)(=O)N3CCOCC3)ccc2Cl)n1	x	x	2%	u	0%	11%	-2%	-29%
O=S(=O)(c1cnccc1N1CCN(/N=C/c2ccc(Cl)cc2)CC1)N1CCCCC1	-6.1%	u	3%	-2%	13%	11%	0%	9%
C#CCOCCOCCOCCNc1nc(N2CCN(C(=O)[C@H]([C@@H](C)CC)n3cc([C@@H](N)CC(C)C)nn3)CC2)nc(N2CCN(C(=O)[C@H]([C@@H](C)CC)n3cc([C@@H](N)CC(C)C)nn3)CC2)n1	x	x	-2%	x	-1%	x	-3%	13%
COc1cc(C(=O)Nc2nnc(CC(=O)NCc3ccccc3)s2)cc(OC)c1OC	x	x	3%	x	u	x	-17%	25%
Cc1ccc(C(=O)CC2(O)C(=O)N(CCc3ccccc3)c3ccc(Br)cc32)o1 (stereo not given)	-6.1%	-20%	-100%	u	-6%	-17%	-9%	1%
CCCOc1ccc(-c2c(C(=O)N/N=C(\C)COc3ccccc3)nnn2-c2nonc2N)cc1	x	x	u	u	18%	u	0%	-6%
CC1(C(=O)O)CCC(C(=O)NC2CCCCC2)C1(C)C (stereo not given)	4.6%	-1%	4%	-1%	3%	9%	x	2%
Cc1ccc(C)c2sc(NC(=O)C3CC3)nc12	x	x	-29%	x	-4%	x	-17%	-2%
COc1cc(Cl)c(C)cc1NC(=O)CN1c2ccccc2S(=O)(=O)c2ccccc21	-5.5%	25µM*	x	x	x	0%[46.1 µM]	-21%	x
CCC(Sc1nnc(-c2ccc(OC)cc2)c(-c2ccc(OC)cc2)n1)C(=O)Nc1cccc(OC)c1 (stereo not given)	-0.5%	u	x	x	x	u	-13%	x
COC(=O)CCN1CCN(S(=O)(=O)c2ccccc2Br)CC1	x	x	x	22%	0%	1%	1%	6%
Cc1nn2c(Nc3ccccc3)c3c(nc2c1-c1ccccc1)CCC3	-8.4%	u	18%	-1%	17%	-6%	u	1%
O=C(COC(=O)CNC(=O)c1sc2ccccc2c1Cl)NC1CCS(=O)(=O)C1 (stereo not given)	x	x	x	13%	0%	17%	12%	-13%
CC1CCN(C(=O)CCCN2C(=O)c3cccnc3Oc3ccc(Cl)cc32)CC1	x	x	7%	4%[46.1 µM]	14%	u	6%	97%
N=c1ccn(Cc2ccc(F)cc2)cc1	x	x	-5%	x	0%	x	-21%	1%
O=C(O)COc1ccccc1/C=C1\C(=O)Nc2ccc(Br)cc21	x	x	4%	6%	1%	-8%	13%	-21%
COCCCNc1nc2c(-c3cccc(Br)c3)nnn2c2ccccc12	0.4%	4%	x	5%[46.1 µM]	x	27%[46.1 µM]	21%	x
CN(C)C(=S)Nc1ccc(Br)c(Cl)c1	x	x	0%	-24%[14.2 µM]	0%	0%	0%	-24%
Cc1ccc(S(=O)(=O)N/N=C/c2ccc(OCC(=O)Nc3ccccc3Cl)cc2)cc1	-0.2%	25µM*	4%	-3%	-3%	9%	59%[activator]	0%
c1cncc(-c2nc(NCCCN3CCOCC3)c3c4c(sc3n2)CCC4)c1	x	x	x	10µM*	-2%	u	-2%	-22%
N=C1/C(=C/c2ccco2)C(=O)N=C2SC(CC(=O)N3CCCC3)=NN12	x	x	7%	x	1%	x	-1%	5%
(more compounds)
SMILES	Cruzain Triton	Cruzain inh noDet	NS1 function inh	MARV entry inh	SARS PLpro yeast	LASV entry inh	2A StopGo	RE007 growth inh
Cn1cccc1CNC1CCCC1	1.0%	-8%	-2%	-17%	-2%	-1%	-1%	-9%
CCc1ccccc1N1CC(c2nc3ccccc3n2Cc2cccc(C)c2)CC1=O (stereo not given)	-11%	u	x	-29%[46.1 µM]	x	-29%[46.1 µM]	-9%	x
O=C(O)CCC(=O)Nc1ccccc1C(=O)NCCc1ccccc1	2.1%	5%	16%	u	4µM*	18%	23%	-15%
CCn1c(O)c(C=NC2CCCC(C)C2C)sc1=S (stereo not given)	x	x	-5%	u	-1%	-25%	0%	-4%
COc1cccc2c1cc1c(=O)n(CC(=O)NCCCN3CCN(C)CC3)nc(C)n12	-4.0%	-14%	-9%	-1%&-1%[46.1 µM]	-1%	x	3%&-1%	-7%
